Bioassay records as filed in PubChem BioAssay.
gsp agonist = qHTS for Agonist of gsp, the Etiologic Mutation Responsible for Fibrous Dysplasia/McCune-Albright Syndrome: qHTS | gsp mutant cells, cAMP HTRF, 30 min; control for the full effect not named in the record | Potency, µM (series often up to 76.9 µM), for inactives: top-dose activation (cAMP increase), most hits filed as activators | hit rate 0.13% among 340,000 | AID 624287, 2012; active = well fitted activation curve with a large enough effect; inconclusive = small, poorly fitted or top-dose-only effect, or another doubt; inactive = no such curve, though single readings can be large or run the other way; cell line not stated here;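 also: phosphodiesterase inhibitor Ro 20-1724 added with compounds to block cAMP breakdown; potency is read from the fitted curve at half-maximal effect; nearly all actives have a fitted effect of over 60% in size; about a fifth of the inactives were tested at one dose only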
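Cells in DMEM/10% FBS with G418 were pretreated with compounds in DMSO plus […] (300 uM stock) for 30 min at 37C. cAMP was measured by HTRF (cAMP-d2 plus anti-cAMP antibody-K) after 30 min at room temperature.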
Menin MLL FP FL = qHTS Assay for Inhibitors Targeting the Menin-MLL Interaction in MLL Related Leukemias: Competition With Fluorescein Labeled MLL-derived Peptide; Fluorescence polarization, fluorescein-MLL peptide displacement from menin; FP activity change, % at 61.4 µM; 290,000 tested, under 10 active; AID 1766, 2009; inconclusive = falling polarisation curve, or a change in total fluorescence; inactive = total fluorescence flat and polarisation flat or rising; no compound was filed as active; the % refers to the polarisation; negative = inhibition;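 also: % of control where 0% means no effect; inhibitors lower the polarisation; unlabelled MLL peptide was the positive control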
D2 ag = Beta-Arrestin HTS for Positive Allosteric Modulators of the Human D2 Dopamine Receptor: Agonists | D(2) dopamine receptor (Homo sapiens), P14416 | DiscoveRx PathHunter D2 beta-arrestin, luminescence, 90 min; 100% = 57 uM dopamine signal | activation, % (no concentration beside the values) | hit rate 0.084% among 360,000; in the data active = activation above about 40%; inconclusive = about 15% to 40%; inactive = below about 15%; also: compound concentration not given in the record; the text of the record calls up to 30% inactive
Target sequence (P14416 whole entry, looked up): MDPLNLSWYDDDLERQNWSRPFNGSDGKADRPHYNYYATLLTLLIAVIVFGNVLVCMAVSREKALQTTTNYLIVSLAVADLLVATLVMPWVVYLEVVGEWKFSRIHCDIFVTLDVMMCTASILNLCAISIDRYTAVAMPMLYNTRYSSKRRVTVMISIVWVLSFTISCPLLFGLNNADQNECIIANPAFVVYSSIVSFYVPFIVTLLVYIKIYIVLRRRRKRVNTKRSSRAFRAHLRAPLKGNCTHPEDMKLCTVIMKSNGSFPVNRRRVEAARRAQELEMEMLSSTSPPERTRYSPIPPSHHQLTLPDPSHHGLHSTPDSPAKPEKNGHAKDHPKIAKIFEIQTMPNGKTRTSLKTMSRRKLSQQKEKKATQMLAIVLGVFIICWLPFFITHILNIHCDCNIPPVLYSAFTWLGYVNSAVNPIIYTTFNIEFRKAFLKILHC
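Agonist mode: compounds alone added to overnight-plated D2 PathHunter cells for 90 min at 37 C, with 57 uM final dopamine (EC100) defining full response. Beta-arrestin recruitment detected by chemiluminescent reagent, read after 1 h at ambient temperature.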
PINK1 expr mod = A Quantitative High throughput Screen to Identify Chemical Modulators of PINK1 Expression; PINK1 immunofluorescence, high-content cytometry, 24 h; Potency, µM (titrated, usually from 76.6 µM), for inactives: at the highest dose activation (PINK1 increase), most hits filed as activators; hit rate 0.2% among 410,000; active = well fitted activation curve with a large enough effect; inconclusive = small, poorly fitted or top-dose-only effect; inactive = flat fitted curve, though single readings scatter; cell line not stated here;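 also: potency is read from the fitted curve at half-maximal effect; % of control where 0% means no effect; nearly all actives have a fitted effect of over 65% in size; a mitochondrial uncoupler was the plate control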
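PINK1 protein, normally rapidly degraded, was detected by immunofluorescence after 24 hour compound treatment of a stable cell line. Titration data (5 concentrations) came from laser-scanning cytometry, with CCCP-treated wells as controls.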
gsp antag = qHTS for Antagonists of gsp, the Etiologic Mutation Responsible for Fibrous Dysplasia/McCune-Albright Syndrome: qHTS; gsp-mutant cells, cAMP HTRF, 30 min; control for the full effect not named in the record; Potency, µM (doses to about 76.9 µM), inactives show at the top dose activity change, negative = inhibition, most hits filed as inhibitors; hit rate 0.4% among 340,000; active = falling curve of any shape with a large fitted effect; inconclusive = falling curve, mostly with a smaller effect; inactive = flat or rising curve; cell line not stated here;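 also: intracellular cAMP measured with PDE inhibitor Ro 20-1724 present during compound exposure; potency is read from the fitted curve at half-maximal effect; % is scaled to controls: 0 for no effect and ±100 for the full control effect; nearly all actives have a fitted effect of over 65% in size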
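HTRF cAMP measurement after 30 min RT detection following 30 min, 37C compound treatment alongside […] (added as 300 uM solution) in G418-selected cells seeded at 2000/well and grown 16–24 h.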
ClpP mod = qHTS Assay for Activators of ClpP | ATP-dependent Clp protease proteolytic subunit (Bacillus subtilis (strain 168)), P80244 | purified B. subtilis ClpP, FRET peptide cleavage, 20 min | Potency, µM (series often up to 57.5 µM), for inactives: at the top dose activity change, negative = active | hit rate 1.9% among 340,000 | AID 651965, 2013; active = well fitted falling curve with a large enough effect; inconclusive = small, poorly fitted or top-dose-only effect; inactive = no such curve, though single readings can be large or run the other way; also: potency is read from the fitted curve at half-maximal effect; the source files actives as falling curves though it sought activators and does not explain the sign; nearly all actives have a fitted effect of over 65% in size; many hits overshoot -100%
Target sequence (P80244 whole entry, looked up): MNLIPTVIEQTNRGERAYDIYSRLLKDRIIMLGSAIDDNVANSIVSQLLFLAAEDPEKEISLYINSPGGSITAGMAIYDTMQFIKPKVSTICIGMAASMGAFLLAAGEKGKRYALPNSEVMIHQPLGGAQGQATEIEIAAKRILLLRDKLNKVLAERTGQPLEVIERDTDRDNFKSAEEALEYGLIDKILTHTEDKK
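FRET quenching reversal measured ClpP activation: 10 microg/mL B. subtilis ClpP at pH 8 with the FRET-FV decapeptide, read at 430 nm after 320 nm excitation. The 20-min minus 0-min signal was scaled between DMSO/no-enzyme wells and ADEP (5.8 microM final).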
Sfp PPTase inh = qHTS Assay for Inhibitors of Bacillus subtilis Sfp phosphopantetheinyl transferase (PPTase) | 4'-phosphopantetheinyl transferase ffp (Bacillus subtilis), Q9F4F7 | Biochemical Sfp PPTase activity, qHTS | Potency, µM, without a hit: max response, negative = inhibition, usual class: inhibitors | hit rate 3.5% among 310,000 | AID 1490, 2009; active = well fitted inhibition curve with a large enough effect; inconclusive = small, poorly fitted or top-dose-only effect, or another doubt; inactive = no such curve, though single readings can be large or run the other way;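 also: the enzyme is Sfp with the accession as filed and its product quenches rhodamine fluorescence; potency is read from the fitted curve at half-maximal effect; 0% = enzyme reaction without inhibitor and -100% = no enzyme wells; top concentration of the series not given in the record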
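With Hepes-Na pH 7.6 buffer containing 10 mM MgCl2, Sfp (15 nM) modified BHQ-2-YbbR (12.5 uM) using rhodamine-CoA (5 uM). Two reads 30 minutes apart at 525/598 nm yielded each well's rate.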
Starred values were filed as active, the others as inactive; ? = inconclusive; / = not tested or not shown; & = joins results of further samples; [ ] = another dose, or the depositor's remark.

SMILES	gsp agonist	Menin MLL FP FL	D2 ag	PINK1 expr mod	gsp antag	ClpP mod	Sfp PPTase inh
COCc1nnc(NS(=O)(=O)c2ccc(C)cc2)s1	1.9%	3.4	-4.0	-1.0%	13.1%	-0.1%	14.7%
COc1ccc(C2N(c3ccc(F)cc3)C(=O)C3CCCN32)cc1 (stereo unspecified)	-31.8%[inhibitor]	8.9	-3.2	0.5%	5.0%	-0.6%	-12.2%
Cc1c(Cl)cnc(NC(=O)COC(=O)[C@H](C)NC(=O)c2ccccc2)c1Cl	-34.9%[inhibitor]	/	-4.8	-0.3%	-15.2%	-0.3%	/
CCOc1ccc2nc3ccc4[nH]onc4c3c2c1	23.7%	/	-0.4	10.1%[38.3 µM]	-15.9%	81.4%	/
Cc1nc(CSc2ccc(Cl)cc2)cc(NCc2ccccc2)n1	-56.6%[inhibitor]	0.9	-2.7	14.9%	-13.2%	-0.7%	-2.6%
CC1=C(C(=O)OC(C)C)C(c2ccncc2)n2ncnc2N1 (stereo unspecified)	0.0%	3.1	-2.7	-1.3%	5.5%	0.8%	2.6%
CC(=O)C1C=CC(C)(C(=O)O)C2C=C(C)C(=O)C(C)(O)C12 (stereo unspecified)	-18.1%	/	-1.6	1.7%	6.1%	/	/
COC(=O)CCC(=O)Nc1cccc2ccccc12	1.9%	3.0	-0.9	-0.5%	8.8%	-2.2%	7.5%
O=C(N=C1SC2CS(=O)(=O)CC2N1c1ccccc1Cl)C1CCCO1 (stereo unspecified)	2.3%	-1.6	-4.9	0.8%	-1.9%	-3.1%	13.8%
O=C(NCc1ccc2c(c1)OCO2)C1CCN(C(=O)Nc2ccc(Cl)cc2)CC1	-14.9%	0.4	-1.9	3.3%[38.3 µM]	-2.1%	-1.5%	12.6%
CN1CCC(=O)N([C@H](CSc2ccccc2)c2ccccc2)CC1	/	-1.1	-2.9	0.0%	7.1%	-6.7%&-1.7%	12.8%
O=C(NCC(=O)N1CCN(c2ncccn2)CC1)c1ccccc1OC(F)F	2.1%[15.4 µM]	/	-2.6	2.0%	7.2%	0.7%	/
CCc1nnc(NC(=O)CSc2nnc3scc(-c4ccc(C)cc4)n23)s1	11.6%	/	-0.4	1.7%[38.3 µM]	-1.8%	-1.3%	/
COc1cccc(NC(=O)CCCCCn2nnc3ccccc3c2=O)c1	11.5%	-3.0	-3.2	2.8%	-0.4%	/	0.9%
COCCNc1cc(C)nc2ccccc12	?	1.9	-0.3	-1.9%	12.2%	-4.9%	3.6%
O=C(Nc1ccc(C(=O)N2CCCC2)cc1)c1ccccc1Br	3.5%	/	0.7	4.7%	8.3%	-2.3%	10.5%
CC(=O)Nc1cncc(-c2ccccc2N(C)C)n1	/	/	6.7	3.5%	/	-4.5%	/
CCOC(=O)Cc1cc(=O)n2[nH]c(C)c(C#N)c2n1	4.9%	2.3	0.9	-4.3%[38.3 µM]	4.8%	?	1.2%
[O-][n+]1c2c(nn1-c1ccccc1)/C(=N/O)CCC2	?	-1.5	-2.9	-0.2%	-3.4%	0.1%	15.8%
CC(=O)c1c(C)[nH]c(C(=O)OCC(=O)N2CCc3ccccc3C2)c1C	-6.7%	/	0.7	1.8%	-12.0%	-0.5%	/
Nc1ncnc2c1ncn2C1C=C(CO)C(O)C1O (stereo unspecified)	-9.7%	/	-3.8	-6.6%	4.5%	-1.5%	/
CN(Cc1ccc(Cl)c(Cl)c1)C(=O)C1CSC2(C)CCC(=O)N12 (stereo unspecified)	-21.1%	/	1.9	1.0%	8.6%	0.9%	/
CCCOc1ccc(-c2c(C(=O)N/N=C/c3ccco3)nnn2-c2nonc2N)cc1	-21.5%	-4.0	0.8	3.1%	-5.4%	-3.4%	1.7%
FC(F)(F)c1cc(CCN2CCNC[C@@H]2CC2CCCCC2)cc(C(F)(F)F)c1	-5.3%	/	-4.9	-1.5%	-5.6%	-1.4%	/
O=C(CN1C(=O)c2ccccc2C1=O)OCc1nc2ccsc2c(=O)[nH]1	?	/	-2.2	-0.5%	18.6%	1.7%	/
Cc1ccc(N=Nc2ccc(O)cc2)c(Br)c1	-0.9%[15.4 µM]	3.6	-5.3	7.7%	5.4%	0.0%	-7.0%
O=C(O)c1cccc2c1-c1c(cccc1[N+](=O)[O-])C2	-2.9%	/	0.9	2.2%	-17.2%	/	/
CCOc1ccccc1NC(=O)COc1ccc2ccc(=O)oc2c1	27.2%	-0.5	8.4	4.7%	-0.2%	/	16.1%
CCn1c(SCC(=O)N2CCC(C(N)=O)(N3CCCCC3)CC2)nc2ccccc2c1=O	38.7%	/	0.3	-2.4%	-8.1%	-2.2%	/
CCCCC(=O)Nc1cc(NC(=O)CCCC)cc(C(=O)O)c1	0.9%	-0.1	-0.1	1.3%[38.3 µM]	1.7%	-0.7%	1.2%
COc1ccc(CC(=O)NNC(=O)c2cccnc2)cc1OC	-46.0%[inhibitor]	-0.4	-1.1	1.2%	4.3%	1.1%	4.2%
COc1ccc(N2CCCC2=N)c(OC)c1	1.6%	0.0	-4.6	0.2%	2.4%	0.7%	-7.3%
Cc1ccc(OCC(=O)Nc2ccc(N3CCN(S(C)(=O)=O)CC3)cc2)c(C)c1	17.7%	-1.3	0.0	0.6%	12.5%	1.0%	16.6%
CC(=O)NC(Cc1ccc(C)cc1)C(=O)NC1CCN(C(=O)c2cnccn2)CC1 (stereo unspecified)	-19.3%	0.5	-0.5	10.4%[38.3 µM]	1.1%	-1.0%	14.6%
COc1ccc(Cl)cc1NC(=O)c1cccc(S(=O)(=O)Nc2c(C)n(C)n(-c3ccccc3)c2=O)c1	-2.0%	/	2.8	1.1%	-28.1%	1.1%	/
NS(=O)(=O)c1ccc(CCNC(=O)CNC(=O)COc2ccccc2)cc1	-1.7%	-13.2	-0.3	0.5%	-1.9%	-3.7%	-7.6%
C=CCn1c(C(C)NC(=O)c2ccc(C)cc2)n[nH]c1=S (stereo unspecified)	-42.8%[inhibitor]	-0.4	-3.8	0.2%	1.2%	1.0%	-0.7%
Cc1cc2nc(-c3ccco3)c(Cc3cccc(F)c3)n2c(C)c1Br	/	/	-8.0	-0.3%	/	3.2%	/
COc1cccc(NC(=O)CN2C(=O)NC(C)(CC(C)C)C2=O)c1 (stereo unspecified)	-4.9%[15.4 µM]	-4.0	-4.6	-0.2%	4.4%	-0.9%	13.3%
COc1ccc(/C(O)=C2/C(=O)C(=O)N(c3ccccn3)C2c2cccc(Cl)c2)cc1 (stereo unspecified)	?	1.4	-0.2	0.9%	-3.8%	-4.2%	27.1%
Cn1c(Cl)c(/C=N/OC(=O)c2ccccc2Cl)c2ccccc21	0.0%	-1.4	-1.1	1.2%	-4.0%	-7.5%	-2.4%
Cc1cc(C)nc(N/N=C/c2c(CO)cnc(C)c2O)n1	11.0%	-0.8	-10.2	-1.3%	-4.8%	/	?
CC(C)C[C@H]1CN([C@@H](CC(C)C)CN2CCCC2CN2C(=S)NC[C@@H]2Cc2ccc(O)cc2)C(=S)N1CC1CCCCC1 (stereo partly specified)	/	/	-1.2	?	-2.5%	-1.3%	/
O=C1C=CC(=O)c2c(O)c(CO)c(CO)c(O)c21	10.1%	/	15.0	9.9%	0.2%	-13.8%	/
CCOC(=O)C1=CC[C@@H](c2ccc([N+](=O)[O-])cc2)N(S(=O)(=O)c2ccc(C)cc2)[C@H]1c1ccccc1	/	/	-1.6	3.2%	/	0.1%	/
CC(C)[C@@H]1COC(c2cccc(C3=N[C@H](C(C)C)CO3)c2)=N1	-9.1%	1.7	-2.0	9.1%	-10.1%	-2.3%	-5.9%
CN(CCc1cnn(C)c1)Cc1nc(CC2CC2)no1	7.4%	2.6	-0.9	0.6%	7.8%	1.1%	10.0%
O=C1CC(c2ccccc2)CC(O)=C1C=NCCc1ccccc1 (stereo unspecified)	-0.1%[15.4 µM]	-0.6	-2.8	1.1%	8.1%	0.1%	11.2%
CSc1ncccc1C(=O)OCn1nnc2ccccc2c1=O	27.7%	-1.6	3.6	0.7%	-3.0%	-2.4%	-7.3%
C=CCn1c(SCC(=O)N(CC)C2CCS(=O)(=O)C2)nc2sc3c(c2c1=O)CCC3 (stereo unspecified)	13.1%	/	-2.7	0.7%	-3.6%	-1.4%	/
COc1ccc2c(-c3ccccc3)cc(SC(C)C(N)=O)nc2c1 (stereo unspecified)	-3.9%[15.4 µM]	-0.8	0.9	11.5%	-27.3%	/	-19.5%
O=C(Cn1cc([N+](=O)[O-])cn1)Nc1nccs1	-34.2%	4.7	-4.0	-0.7%	8.7%	-1.5%	-7.6%
COc1ccc(-c2noc(N3CCC(C(=O)NCCCN4CCCCC4)CC3)n2)cc1	-47.3%[inhibitor]	-0.9	-3.7	1.6%	11.4%	0.8%	-2.7%
O=C(Cc1ccccc1)NCC(=O)Nc1ccccc1Br	-11.9%[15.4 µM]	-8.0	-0.2	0.8%	8.1%	/	5.7%
O=C(Nc1ccc2oc(=O)ccc2c1)c1ccc(-c2cccc(Cl)c2)o1	17.1%	5.8	2.5	-0.5%	-15.2%	-21.1%	-11.6%
COC(=O)[C@@H]1C[C@@]2(O)[C@@H](O)[C@@H](O)[C@@H](O)C[C@H]2N1C/C=C/c1ccccc1	/	3.4&-3.4	-0.4	0.2%	8.4%	2.3%	17.4%&-1.3%
COc1ccc(CNC(=O)c2csnn2)cc1	8.4%	-0.7	-1.9	-0.9%[38.3 µM]	5.4%	-1.6%	4.8%
N#Cc1cccc(-c2nc3cnc(Oc4cccc(Cl)c4)nc3n(C3CC3)c2=O)c1	/	1.5	/	3.3%	/	/	6.7%
O=C(O)c1cc(Cl)c2c(c1)[C@@H]1C=CC[C@@H]1[C@H](c1ccc(S(=O)(=O)N3CCOCC3)cc1)N2	-15.3%	?	-0.1	5.1%	-6.0%	-2.1%	?
